# 2A StopGo: lowers the luciferase signal of an FMDV 2A StopGo reporter; human cells with a luciferase reporter of 2A StopGo recoding; control for the full effect not named in the record; Potency, µM (titrated, usually from 57.9 µM), for inactives: at the top dose signal change, negative = less light; 410,000 tested, 1.2% active; AID 1159524; active = well fitted falling curve with a large enough effect; inconclusive = small, poorly fitted or top-dose-only effect; inactive = no such curve, though single readings can be large or run the other way; tested in HEK293T cells; note: nearly all actives have a fitted effect of over 45% in size; luciferase light after 4 h
# * hit, by the source's call; ? = inconclusive; [ ] = another dose, or the depositor's remark. % is set by controls: 0 for no effect and ±100 for the full control effect; potency is the fitted concentration of half-maximal effect.
mol,2A StopGo
COCc1c(C(=O)N2CCN(C3CCCC3)CC2)cnn1-c1ncc2c(n1)-c1ccccc1CCC2,-8%
CCc1nc2cc(C(=O)N3CCCN(C=O)CC3)cc(NC(=O)c3ccccc3OC)c2n1C,-1%
COC(=O)C1=C(C)NC(C)=C(C(=O)OCCCN2CCC(c3ccccc3)(c3ccccc3)CC2)C1c1cccc([N+](=O)[O-])c1 (stereo not drawn),21%[39.8 µM]
COc1ccc(CN2CCC3(CCC(CNC(=O)c4ccnn4C)O3)CC2)c(C)c1C (stereo not drawn),-4%
CC1CN(CCC(=O)N2CCCC(C(=O)c3nccn3C)C2)Cc2cc(Cl)ccc2O1 (stereo not drawn),-9%
COc1ccccc1-c1nc2cc(C(=O)NC[C@H]3CCc4ccccc4O3)cc(NC(C)=O)c2n1C,-4%
CC(=O)c1ccccc1C(=O)NCC1Cc2cccc(-c3cccnc3)c2O1 (stereo not drawn),0%
COc1cc(C(=O)N(Cc2cc3ccc(C)cc3nc2N(C)C)C2CC2)cc(OC)c1OC,9%
CCC1CN(CC(=O)N(C)Cc2nc3ccccc3[nH]2)Cc2cc(OC)ccc2O1 (stereo not drawn),15%
COCC(=O)Nc1cc(C(=O)N2CCN(C)C(c3ccccc3)C2)c2c(c1)nc(-c1ccncc1)n2C (stereo not drawn),-7%
COc1ccc2c(c1)OC(C)CN(CCNC(=O)c1cc3cc(F)ccc3[nH]1)C2 (stereo not drawn),17%
COc1ccc(OC)c(-c2ccc(O)c(CN3CCc4c([nH]c5ccccc45)C3)c2)c1,-11%
O=C(NCC1Cc2cc(F)cc(-c3cnccn3)c2O1)C1COc2ccccc2O1 (stereo not drawn),19%
COc1ccccc1CCNc1ncnc2sc(C(=O)N3CCCN(C=O)CC3)c(C)c12,-26%
C[C@]12CC[C@H]3[C@@H](C[C@H](F)C4=CC(=O)CC[C@@]43C)[C@@H]1CC[C@@H]2O,-15%
Cc1ccc2c(c1)Cc1c(C(=O)NN3CCCCC3)nn(-c3ccc(Cl)cc3Cl)c1-2,0%
Cc1ncc2c(c1CNC(=O)c1ccc3c(c1)OCO3)CCN(C(=O)c1scc3c1CCCC3)C2,-16%
COc1cccc(CNC(=O)c2c(OC)cc(=O)n3c2CCN(C(=O)c2ccc(C)nc2)CC3)c1,-12%
Cc1cc(=O)c(C(=O)NCCCc2ccncc2)c2n1-c1ccccc1SC(c1cccs1)C2 (stereo not drawn),-9%
Cc1ccc(C(=O)N(Cc2cc3cccc(C)c3nc2N(C)C)CC2CCCO2)cc1 (stereo not drawn),-5%
Cc1ccc2cc(CN(C(=O)c3ccc4c(c3)OCO4)C3CC3)c(N(C)C)nc2c1,2%
COc1cccc(CNC(=O)c2c(OC)cc(=O)n3c2CCN(C(=O)c2cc(F)cc(F)c2)CC3)c1,6%
COc1cccc2c1C13CC[N+]4(CC5CC5)CO[C@]1(CCC(=O)C3)C4C2,1%
C(=C\c1ccccc1)/CN1CCN(CCOC(c2ccccc2)c2ccccc2)CC1,-16%
O=C1NC(=O)c2c1c1c3ccccc3n3c1c1c2c2ccccc2n1C1CCC3O1,-13%
O=C(O)c1ccc(-c2ccc3cc(C45CC6CC(CC(C6)C4)C5)c(O)cc3c2)cc1,?
COc1cc(=O)n2c(c1C(=O)NC(C)c1ccco1)CCN(C(=O)c1[nH]c(C)cc1C)CC2 (stereo not drawn),-7%
C=Cc1ccc(C(=O)N2CCc3c(cnc(C)c3CNC(=O)c3ccc4c(c3)OCO4)C2)cc1,-4%
COCC(=O)Nc1cc(C(=O)N2CCCC2c2nccs2)c2c(c1)nc(-c1ccncc1)n2C (stereo not drawn),-5%
Cc1cc(C(=O)NCC2CCC3(CCN(Cc4ccccc4C)CC3)O2)n(C)n1 (stereo not drawn),-11%
OC12C3C4CC5C6C4C1C6C(C53)N2CCc1cccc(F)c1 (stereo not drawn),-11%
C[C@@H](N)CCCP(=O)(O)O,-14%
CCOc1cncc(/C=C/CCNC)c1,-19%
Cc1cnc(C)c(-c2cc(F)cc3c2OC(CNC(=O)CN2CCCC2)C3)n1 (stereo not drawn),-1%
Cn1c(SCC2CCCO2)nnc1C1CCN(Cc2ccc(-c3cccc(Cl)c3)o2)CC1 (stereo not drawn),-10%
COc1ccc(C2(C(=O)NCC3Cc4cccc(-c5cccnc5)c4O3)CCCC2)cc1 (stereo not drawn),-14%
CCC(OC(=O)c1ccc(S(C)(=O)=O)c([N+](=O)[O-])c1)C(=O)NC1C2CC3CC(C2)CC1C3 (stereo not drawn),40µM*
Cc1ccc(/C=C2/CNC/C(=C\c3ccc(C)cc3)C2=O)cc1,?
Cc1ccc2c(c1)CN(CCNC(=O)c1cccc(Cn3cccn3)c1)CC(C)O2 (stereo not drawn),25%
Cc1c(P(=S)(c2ccccc2)c2ccccc2)[n+]2ccccc2n1CCc1ccccc1,?
Cc1ccc(CN2CCOc3ccc(CN4CCC(O)(c5cccnc5)CC4)cc3C2)cc1C,?
Cn1nccc1C(=O)NCC1CCC2(CCN(Cc3ccc(-c4ccc(Cl)cc4)o3)CC2)O1 (stereo not drawn),?
Cc1cccc2nc(CNC(=O)CN3Cc4ccccc4OC(c4ccccc4F)C3)cn12 (stereo not drawn),7%
Cc1ccc(F)cc1S(=O)(=O)NCc1nc(N2CCCC2)c2cccc(C)c2n1,-13%
COc1cc(-c2cc(C)c3cccc(OC)c3n2)cc2c1OCCN(C(=O)CCn1nc(C)cc1C)C2,-14%
[C-]#[N+]c1cc(-c2ccncc2)c(C)[nH]c1=O,1%[146 µM]
C=C(C)C1CCC(C)=CC1c1c(OC)cc(C)cc1OC (stereo not drawn),-18%
C[C@H](NC(=O)CNC(=O)[C@@H](NC(=O)[C@H](Cc1ccccc1)NC(=O)CNC(=O)CNC(=O)[C@@H](N)Cc1ccccc1)[C@@H](C)O)C(=O)N[C@@H](CCCN=C(N)N)C(=O)N[C@@H](CCCCN)C(=O)N[C@@H](CO)C(=O)N[C@@H](C)C(=O)N[C@@H](CCCN=C(N)N)C(=O)N[C@H](CN)CCCCN,3%[6.7 µM]
COc1ccc2c(c1)-c1nc(-n3ncc(C(=O)NCc4cccc(C)n4)c3C3CC3)ncc1CC2,-17%
CCS(=O)(=O)NCc1c(C)ncc2c1CCN(C(=O)c1csc(-c3cccs3)n1)C2,-7%
CCn1c(-c2ccccc2F)nc2cc(NC(C)=O)cc(C(=O)N(C)Cc3c(C)nc4ccccn34)c21,0%
CC(C)(O)C#Cc1ccc(C(=O)NCCN2Cc3ccccc3OC(c3ccccc3F)C2)o1 (stereo not drawn),-10%
OCC1CCCN(c2nc3cc4c(cc3cc2CNCc2cccs2)OCO4)C1 (stereo not drawn),8%
CN(C)c1ccc(CN2CCOc3ccc(CN4CCC(O)(c5cccnc5)CC4)cc3C2)cc1,?
O=C(NCc1nnc2n1CCN(Cc1ccc(C(F)(F)F)cc1)CC2)c1cccc(F)c1,-12%
CC(=O)Nc1ccc(C(=O)N2CCCC(c3nc(SCc4ccccn4)ncc3C)C2)cc1 (stereo not drawn),-3%
Cc1cc(C)c(N(Cc2ccccc2)S(=O)(=O)c2ccc(OCCNC(=O)c3cc4ccccc4o3)cc2)c(C(=O)NO)c1,0%
COc1ccccc1C1CN(Cc2cccnc2)Cc2ccccc2O1 (stereo not drawn),-10%
COc1ccc(-c2nc3cc(C)ccc3cc2CN(C(=O)c2ccc(C)s2)C2CC2)cc1OC,-14%
N[C@@]1(C(=O)O)CN[C@@H](C(=O)O)C1,-9%

# More records
SMILES	2A StopGo
Cc1ncc2c(c1CNC(=O)/C=C/c1cccs1)CCN(C(=O)C1CCCO1)C2 (stereo not drawn)	-16%
Cc1ccc(C(=O)Nc2cccc(-c3nc(CNC(=O)c4cccc(N(C)C)c4)c(C)o3)c2)s1	3%
Cc1cc(Cl)ccc1OCC(=O)NCC1Cc2cc(-c3cnccn3)ccc2O1 (stereo not drawn)	-14%
COCc1c(C(=O)N2CCN(C3CCCC3)CC2)cnn1-c1nccc(-c2cccs2)n1	2%
Cc1cnc(C)c(-c2cc(F)cc3c2OC(CNC(=O)c2cc(Cl)ccc2F)C3)n1 (stereo not drawn)	-7%
O=C(NCCCN1CCCCCC1)C(c1ccccc1)C1CCCCC1 (stereo not drawn)	-22%
CCC1(C2CCN(C(=O)c3ccccc3Cl)CC2)NC(=O)N(CCc2scnc2C)C1=O (stereo not drawn)	9%
O=C(CN1Cc2ccccc2OC(c2ccsc2)C1)N1CCN(Cc2ccc3c(c2)OCO3)CC1 (stereo not drawn)	1%
CC(CN1CCc2nnc(CNC(=O)c3cccc(F)c3)n2CC1)c1ccccc1 (stereo not drawn)	-6%
C[C@H](NC(=O)CCC1CCC(=O)N1)c1ccccc1 (stereo partly drawn)	-10%
CC1(C)S[C@@H]2[C@H](N)C(=O)N2[C@H]1C(=O)O	-12%
CCn1c(-c2cccnc2)nc2cc(NC(=O)COC)cc(C(=O)N3CCc4ccccc4C3)c21	-17%
COc1ccc(-n2c(CNC(=O)c3cccc4ccccc34)nnc2SC)cc1	5%
CCC1CN(CCNC(=O)c2cc(C)nn2CC)Cc2cc(OC)ccc2O1 (stereo not drawn)	10%
O=C(NCc1nnc2n1CCN(Cc1cccc(Cl)c1)CC2)c1cccc(F)c1	-1%
COc1ccc(OC)c(CN2CCOc3ccc(CN4CCC(O)(c5cccnc5)CC4)cc3C2)c1	0%
COc1ccc(-c2nc3cc(F)ccc3cc2CN(C(=O)c2ccc3c(c2)OCO3)C2CC2)cc1	-9%
CCCCCCCCCCCCCCCC(=O)C1=C(O)C(CO)OC1=O (stereo not drawn)	2%
COc1cc(CN2CCC3(CC2)CC3C(=O)Nc2ccc3sc(C)nc3c2)ccc1F (stereo not drawn)	-10%
NC(N)=NCCNS(=O)(=O)c1cccc2cnccc12	-4%
COCCN1CCN(C(=O)c2cnn(-c3nccc(-c4ccco4)n3)c2C2CC2)CC1	5%

# This is a subset, so the mix of outcomes need not match the whole.
